MbtI inh: MbtI salicylate synthase inhibitors, primary screen, biochemical, fluorescence intensity; AID 493033, 2011; inhibition, %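 (about 17 µg/mL by stock and volumes)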; hit rate 0.89% among 100,000; P9WFX0; purified MbtI enzyme, fluorescence intensity read-out;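 active = above 50% in both replicates, above 80% if mildly self-fluorescent; inactive = the rest, strongly fluorescent compounds included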;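 note: 0% = mean of negative and 100% = mean of positive controls; one replicate is shown; some compounds called inactive have numbers as strong as hits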
Polio RdRp inh: poliovirus RdRp elongation inhibitors, primary screen, biochemical, fluorescence polarization, total intensity | Genome polyprotein (Poliovirus type 1 (strain Mahoney)), P03300 | poliovirus polymerase elongation; active compounds read low | % elongation, % (compound at 16.7 µg/mL) | hit rate 0.66% among 150,000; in the data active = % elongation below about 90%; note: some results filed as inactive read as strong as hits
Target sequence (P03300 1749-2209 limits assumed): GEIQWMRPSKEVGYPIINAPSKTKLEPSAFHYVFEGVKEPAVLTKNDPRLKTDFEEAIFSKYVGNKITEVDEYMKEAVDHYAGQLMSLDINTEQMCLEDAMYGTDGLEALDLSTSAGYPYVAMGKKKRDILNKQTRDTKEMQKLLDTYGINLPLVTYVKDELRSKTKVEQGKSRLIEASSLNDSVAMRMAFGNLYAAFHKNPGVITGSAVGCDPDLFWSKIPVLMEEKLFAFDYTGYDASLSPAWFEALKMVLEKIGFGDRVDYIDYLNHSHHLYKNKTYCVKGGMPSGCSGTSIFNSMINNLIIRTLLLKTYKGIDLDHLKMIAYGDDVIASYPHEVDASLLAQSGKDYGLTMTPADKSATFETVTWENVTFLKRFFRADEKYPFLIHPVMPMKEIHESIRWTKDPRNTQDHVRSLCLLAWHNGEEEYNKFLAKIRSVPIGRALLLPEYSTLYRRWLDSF
MenB inh: M. tuberculosis MenB inhibitors, primary screen, biochemical, absorbance | inhibition, %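 (about 12 µg/mL by stock and volumes)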 | AID 540299, 2011 | 1,4-dihydroxy-2-naphthoyl-CoA synthase (Mycobacterium tuberculosis (strain ATCC 25618 / … | MenB enzyme assay, absorbance read-out; some hits fall short of the stated cut | hit rate 0.43% among 100,000;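 active = mean of two replicates above 30%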;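 note: 0% = no compound and 100% = wells with inactive enzyme; the first replicate is given; strong numbers were not always called active; inactives centre near -10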
Target sequence (P9WNP5 whole entry, looked up): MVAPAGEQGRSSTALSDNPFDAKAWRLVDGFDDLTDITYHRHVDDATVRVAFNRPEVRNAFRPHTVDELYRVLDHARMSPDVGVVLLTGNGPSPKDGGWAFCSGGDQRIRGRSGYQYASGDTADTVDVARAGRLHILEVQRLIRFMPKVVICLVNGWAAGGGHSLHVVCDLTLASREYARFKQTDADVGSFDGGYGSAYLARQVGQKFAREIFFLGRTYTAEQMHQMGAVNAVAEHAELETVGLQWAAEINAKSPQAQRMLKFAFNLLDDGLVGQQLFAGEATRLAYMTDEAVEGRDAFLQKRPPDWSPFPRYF
Polio RdRp inh intensity: recorded beside Polio RdRp inh, whose call it bears; % elongation; measured here: total intensity read-out; formula for this scale not given here;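 total fluorescence in place of polarization; lower means less elongation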
* hit, by the source's call; x = not tested or not shown; & = joins results of further samples. The order is random; any-hit rate near 1.8%.

SMILES	MbtI inh	Polio RdRp inh	Polio RdRp inh intensity	MenB inh
NNC(=O)CN1c2ccccc2Sc2ccccc21	-13	106	108	5
O=C(O)c1ccc(C(=O)Nc2cccc(Cl)c2)c(C(=O)O)c1	-9	100	103	-17
CS(=O)(=O)Cc1ccc(C(=O)O)cc1	-9	99	93	-14
N#CC1=C(N)Oc2c(c(=O)oc3ccccc23)C1C1CC=CCC1 (configuration not stated)	-263	103	103	-10
CCCC(=O)N(CC)Cc1cc2cc(OC)ccc2[nH]c1=O	x	102	112	-8
c1ccc(-c2nnc3ccc4nnc(-c5ccccc5)n4n23)cc1	-10	101	102	-32
CC(C)C(=O)NC(C)C(c1cccs1)N1CCN(c2ccccc2)CC1 (configuration not stated)	1	99	102	9
CCCCOC(=O)Cc1c(C)[nH]c(=O)[nH]c1=O	-13	102	99	-55
CCc1ccc(S(=O)(=O)Nc2ccc3oc4c(c3c2)C(=O)CCC4)cc1	-1	102	106	-25
CCCN(CCC)S(=O)(=O)c1ccc(CCN2C(=O)c3cccnc3C2=O)cc1	7	101	98	6
Cc1ccc(C(=O)NCO)cc1	-11	103	108	x
COC(=O)c1ccc(Cn2c[n+](N)cn2)cc1	-13	100	98	x
COC(=O)CNc1cn[nH]c(=O)n1	-4	104	100	-42
CCC(C)NC(=O)COc1ccc(C(C)(C)c2ccccc2)cc1 (configuration not stated)	-3	102	105	-9
CC(c1nnc(-c2cccs2)o1)N1CCC(Cc2ccccc2)CC1 (configuration not stated)	1	96	96	-21
O=C(OCC(=O)N1CCN(c2ccccc2)CC1)C1=COCCO1	-4	102	99	-21
CCOc1ccc2nc(SCC(=O)O)oc2c1	30	99	100	-14
N#C/C(=C\c1ccccc1F)c1ccccc1	x	105	111	-2
COC(=O)c1c(NC(=O)CCC(=O)O)sc2c1CCCC2	6	104	101	1
CC(C)[C@H](NC(=O)c1cccc(S(=O)(=O)N2CCOCC2)c1)C(=O)Nc1nc2ccccc2s1	-3	104	96	-30
CCN(C(=O)Cn1c(=O)oc2cc(S(=O)(=O)N3CCCC3)ccc21)c1ccccc1	-2	104	106	-21
CCCn1c(=O)cc(N)n(-c2ccc(OC(F)(F)F)cc2)c1=O	-15	101	103	2
c1ccc(OCCCn2cnc3ccccc32)cc1	1	104	104	-17
NN1C(=O)NC2(CCCCC2)C1=O	1	106	111	1
CC(C)=C(NC(=O)c1ccccc1)C(=O)N(C)C	0	100	103	-2
CCCN(CCC)C(=O)/C=C/c1cc(OC)c(OC)c(OC)c1	-45	101	101	-7
CC1(C)OC(=O)N(Nc2ccccc2)C1(C)O (configuration not stated)	x	99	101	-19
COc1ccc(-c2csc(NCc3ccccc3)n2)cc1	-3	106&100	105&108	-18
COC(=O)c1sc(NC(=O)CN2CCCCC2C)c(C(=O)OC)c1C (configuration not stated)	6	100	98	-57
Nn1c(-c2ccccn2)nnc1-c1ccccn1	x	104	108	-2
O=C(NCCCN1CCOCC1)c1ccc(NC(=O)c2ccccc2)cc1	-13	101	105	-3
COc1ccc(N(/N=C2\Sc3ccccc3C2=O)C(C)=O)cc1	2	96	100	12
Cc1cccc(OCC(=O)Nc2ccc(CN3CCOCC3)cc2)c1C	-2	103	102	9
COc1ccccc1NCCC(=O)O	-7	103	106	x
CCCOc1ccc2oc(=O)c3c(c2c1)CCCN3C(=O)CN1CCCc2ccccc21	9	101	101	-18
COC(=O)c1cc(C(=O)OC)cc(N2Cc3nccnc3C2=O)c1	-1	100	105	-5
O=C1OCCC1Sc1nc2sccc2c(=O)n1-c1ccccc1 (configuration not stated)	3	108	112	10
O=c1n(-c2ccccc2)c(=O)n2n1C1C=CC2C1	-6	105	104	2
CCOc1ncccc1C(=O)OCC(=O)N1C(C)CCCC1C (configuration not stated)	-3	103	101	-9
CC(C)Oc1ccc(C(F)(F)F)cc1NC(=O)C1CC1	-7	101	101	-23

Reprinted from the results shown, four compounds:
SMILES	MbtI inh	Polio RdRp inh	Polio RdRp inh intensity	MenB inh
CCCn1c(=O)cc(N)n(-c2ccc(OC(F)(F)F)cc2)c1=O	-15	101	103	2
c1ccc(OCCCn2cnc3ccccc32)cc1	1	104	104	-17
NN1C(=O)NC2(CCCCC2)C1=O	1	106	111	1
CC(C)=C(NC(=O)c1ccccc1)C(=O)N(C)C	0	100	103	-2

The list goes on:
SMILES	MbtI inh	Polio RdRp inh	Polio RdRp inh intensity	MenB inh
CCOc1ccc(NC(=O)N2CCCC(CN3CCc4ccccc4C3)C2)cc1 (configuration not stated)	-4	101	105	-20
COC(=O)Cn1c(C(=O)OC)cc2c1ccn2-c1ccc(F)cc1	89	101	102	8
CC(C)(C)c1cc2n(n1)C1=NCCN1C=N2	-5	105	110	4
OC1(c2ccc(Br)cc2)NN=C2CCCCCN21 (configuration not stated)	4	103	99	-15
CC(CCc1ccccc1)NC(=O)CSc1cn[nH]n1 (configuration not stated)	-2	99	101	-1
COc1ccc(C(C(=O)NCc2ccccc2)N(Cc2ccco2)C(=O)c2cnccn2)cc1 (configuration not stated)	-6	99	102	36*
Cc1cc(C)cc(NC(=O)C2CCCN(S(=O)(=O)c3c(C)noc3C)C2)c1 (configuration not stated)	-6	103	106	-26
Cc1ccc(C(C)C)cc1OCCN	10	102	103	17
CCOC(=O)N1CCN(C(=O)CN2C(=O)/C(=C/c3ccc(OCC)cc3)SC2=S)CC1	1	101	104	-31
Cc1ccc(C(=O)COC(=O)c2ccc(Br)cn2)cc1	12	101	108	-11
C[N+](C)(C)CCC(O)c1ccccc1 (configuration not stated)	-11	102	106	0
N#Cc1nc(-c2ccc(F)cc2)oc1NC1CCCCC1	149	102	96	-13
COc1cc(C)c(CSCC(=O)O)cc1OC	3	96	93	14
NNC(=O)c1nc(-c2cccc(-n3cccc3)c2)no1	11	100	104	13
COc1ccccc1NCC(=O)n1nc(C)cc1C	-3	104	106	0
CC1CC(CCC(=O)NC(=S)Nc2ccc(S(N)(=O)=O)cc2)C(=O)O1 (configuration not stated)	5	101	101	10
CCc1ccc(CN(C)C(=O)c2ccc3c(c2)OCCO3)cc1	-7	103	107	-13
O=C(c1cc(-c2ccccc2)on1)N1CCCc2ccccc21	-4	102	104	-56
CNC(=S)N(Cc1cc2ccc(OC)cc2[nH]c1=O)C1CCCC1	33	100	102	25
Cc1cccc(CSc2nc3c(cc2C#N)CN(C)CC3)c1	4	103	100	-59
COc1ccc(OC)c(C(=O)c2coc3ccc(O)cc23)c1	x	105	104	-1
O=C(NCc1ccc2c(c1)OCO2)C(F)(F)F	x	103	101	-7
Cc1nc2cc(C(=O)Nc3ccc(Cn4ccnc4)cc3)ccc2n1-c1ccccc1	-8	109	110	-19
O=C(Nc1ccccc1)Nc1nccc(-c2cc(OCC(F)(F)F)ccc2OCC(F)(F)F)n1	-9	101	91	-13
COC(=O)c1c(NC(=O)/C=C/c2ccccc2)sc2c1CCCC2	x	108	114	-16
O=C(NCCC1=CCCCC1)c1ccc2cn[nH]c2c1	19	101	100	0
CCCC(C)C(=O)N(C)c1ccccc1 (configuration not stated)	-13	101	105	1
CN(C)CCCn1c(-c2ccc(Cl)cc2)c(CC(=O)O)sc1=Nc1ccccc1	9	99	103	-17
Cc1ccc(C)c(NC2(C#N)CCCCC2)c1	-7	103	103	-35
CCOC(=O)c1cc(-c2ccccc2)n(CCC(=O)O)c1C	1	103	97	1
CCOC(=O)Cc1csc(NC(=O)c2ccc(S(=O)(=O)N3CCCC3)cc2)n1	0	101	102	-5
CN1CCC(=NNC(=O)CCSc2ccc(Cl)cc2)CC1	-8	101	101	-4
CNc1ccccc1C(=O)OCC(=O)c1ccccc1	-17	102	100	-16
O=C(COC(=O)COc1ccccc1)Nc1ccccc1	-10	98	94	-8
CCN(C(=O)CSc1nnc(C2CC2)n1-c1ccccc1)C1=CCCC1	-11	103	108	-9
O=C(c1cccc(Cl)c1)N1CCNCC1	x	104	103	7
CCOC(=O)c1ccccc1NC(=O)CCN1C(=O)c2ccccc2C1=O	-5	103	101	-20
CC1CCCCN1S(=O)(=O)c1ccc(S(=O)(=O)NCc2ccc3c(c2)OCO3)cc1 (configuration not stated)	0	103	99	-45
CCC(=O)N1N=C(c2c(-c3ccccc3)c3cc(Cl)ccc3[nH]c2=O)CC1c1ccco1 (configuration not stated)	16	102	104	-19
Cc1noc(C)c1C(=O)O/N=C(\N)c1ccc(OC(F)(F)F)cc1	-4	99	100	7
Cc1ccc(N2CC(NS(=O)(=O)N(C)C)CC2=O)cc1C (configuration not stated)	-2	99	106	-3
NC(=O)c1ccsc1NC(=O)CSc1nc(-c2ccccc2)cs1	-4	99	97	-31
CC(C)(O)CC[C@@H](O)[C@](C)(O)C1CC[C@@]2(O)C3=CC(=O)C4CC(O)C(O)CC4(C)C3CCC12C (some centres not stated)	-2	101	102	-29
CC(C)N(C(=O)CSc1ccccc1Cl)c1ccccc1	-9	101	95	x
NC(=S)c1cnccc1C(F)(F)F	-4	108	107	-19
Cc1ccc(C#N)c(SCCCn2c(=O)[nH]c3ccccc32)n1	8	x	x	-14
COc1ccc(C(=O)NCCn2cc(SCC(=O)N3CCCCC3)c3ccccc32)cc1	1	103	102	-26
CN(C)c1ccc(/C=C/C(=C(C#N)C#N)C2CC2)cc1	-12	106	162	-10
CCOc1ncccc1C(=O)Nc1cc(Cl)ccc1N1CCOCC1	-10	100	108	-18
Cc1nn(-c2ccccc2)c2nc(Cl)c(C3N=C(N)Nc4nc5ccccc5n43)cc12 (configuration not stated)	17	103	100	8

Carrying on.
SMILES	MbtI inh	Polio RdRp inh	Polio RdRp inh intensity	MenB inh
N#Cc1ccc(Sc2ccc(Cl)cc2)nc1	-5	104	115	-17
O=C(OCCO)c1cc(Cl)c(C(=O)OCCO)cc1Cl	-8	104	103	-27
COc1ccc(CNC(=O)C(OC(C)=O)c2ccccn2)cc1 (configuration not stated)	-6	100	102	23
CC(C)=CC(=O)N1CCCc2ccccc21	5	99	106	-16
O=C(Oc1ccc(-c2nnco2)cc1)c1cc(-c2ccccc2)nn1-c1ccccc1	-6	98	104	-18
CCOC(=O)N1CCN(C(=O)c2c[nH]c3ccc(S(=O)(=O)N(CC)CC)cc3c2=O)CC1	113	100	103	-17
O=C1C2C(c3ccccc3)C=CC(c3ccccc3)C2C(=O)N1CCCO (configuration not stated)	-14	101	105	-4
Cn1c([O-])c([N+](C)(C)C)c(=O)n(C)c1=O	-2	101	104	-40
Cc1cc(-n2c(C)cc(C(=O)COC(=O)C(C)Nc3ncnc4sc(C)c(C)c34)c2C)no1 (configuration not stated)	1	102	107	-7
CCOC(=O)c1c(CC(C)C)csc1/N=C/C1C(=O)CCCC1=O	6	101	102	-50
CN1CC(=O)N(C)c2ccccc21	33	100	101	7
CCCCn1nnnc1COC(=O)c1cc(OC)c(OC)cc1NC(=O)c1ccco1	5	108	108	-18
COc1ccc(Cn2c(CO)cnc2SCC(=O)N(C)c2ccccc2)cc1	-8	99	103	8
CN1/C(=C\C(=O)CN(Cc2ccco2)S(=O)(=O)c2ccc3c(c2)OCCO3)C(C)(C)c2ccccc21	8	104	107	-63
C/C(=N\OCc1ccc(C#N)cc1)c1ccccc1	15	97	91	-20
O=C([C@@H](c1ccccc1)N1Cc2ccccc2C1=O)N1CCCC1	-6	102	106	-14
NC(=O)c1ccccc1NC(=O)CCC1CCCCC1	10	98	101	-8
CCOc1ccccc1-c1nnc(SC(C(=O)N(C)C)c2ccccc2)o1 (configuration not stated)	2	101	100	-17
CC(NC(=O)c1ccccc1OCC(=O)NC12CC3CC(CC(C3)C1)C2)c1ccccc1 (configuration not stated)	x	104	109	-15
CCN(CC)C(=O)C1CCN(Cc2ccccc2F)CC1	-2	103	102	-14
C=CCN(CC=C)C(=O)c1ccc(SC)cc1OC	-9	104	102	-5
Cc1cc(Nc2ccccc2)n2ncnc2n1	14	100	109	-3
CN(C)CC1(CC(=O)O)CCCCC1	0	104	99	-11
Cc1ccc(S(=O)(=O)N2C(=O)CCC2C(=O)N(Cc2nc(-c3cccc(C)c3)no2)C(C)C)cc1 (configuration not stated)	-2	102	101	-2
COc1ccc(C(CNS(=O)(=O)c2cccs2)N2CCN(C)CC2)cc1 (configuration not stated)	2	98	103	5
N#CC1=C(N)Oc2c(oc(CO)cc2=O)C1c1ccsc1 (configuration not stated)	x	100	108	-4

An excerpt of these results, bar-delimited.
Structure | MbtI inh | Polio RdRp inh | Polio RdRp inh intensity | MenB inh
Cc1ccc(S(=O)(=O)N2C(=O)CCC2C(=O)N(Cc2nc(-c3cccc(C)c3)no2)C(C)C)cc1 (configuration not stated) | -2 | 102 | 101 | -2
C=CCN(CC=C)C(=O)c1ccc(SC)cc1OC | -9 | 104 | 102 | -5
N#CC1=C(N)Oc2c(oc(CO)cc2=O)C1c1ccsc1 (configuration not stated) | x | 100 | 108 | -4
COc1ccc(C(CNS(=O)(=O)c2cccs2)N2CCN(C)CC2)cc1 (configuration not stated) | 2 | 98 | 103 | 5
CN(C)CC1(CC(=O)O)CCCCC1 | 0 | 104 | 99 | -11
Cc1cc(Nc2ccccc2)n2ncnc2n1 | 14 | 100 | 109 | -3
